PP1 inh – blocks human PP1-alpha phosphatase, a PP5 counter-screen | P62136 | purified PP1alpha, OMFP fluorescence | inhibition, % at 6.7 µM | hit rate 0.9% among 320,000 | AID 2235;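 active = inhibition above the mean inhibition of all tested compounds plus 3 SD, computed separately for each screening campaign, cut at about 15% in these data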
Target sequence (P62136 whole entry, looked up): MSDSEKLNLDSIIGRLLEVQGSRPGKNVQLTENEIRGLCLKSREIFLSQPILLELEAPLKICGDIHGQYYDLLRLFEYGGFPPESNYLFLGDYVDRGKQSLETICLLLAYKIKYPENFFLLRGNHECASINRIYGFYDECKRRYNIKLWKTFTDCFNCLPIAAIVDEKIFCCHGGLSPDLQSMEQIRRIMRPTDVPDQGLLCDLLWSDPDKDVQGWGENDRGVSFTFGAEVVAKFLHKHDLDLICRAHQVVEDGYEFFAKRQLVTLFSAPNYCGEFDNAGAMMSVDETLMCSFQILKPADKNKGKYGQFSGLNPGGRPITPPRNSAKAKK
ZTA counter – counter-screen for EBNA-1 inhibitors: inhibitors of Epstein-Barr virus ZTA; hit rate 0.15% among 320,000; inhibition, % at 11 µM; ZTA-DNA binding, fluorescence polarization; P03206; in the data active = inhibition above about 33%
Target sequence (P03206 whole entry, looked up): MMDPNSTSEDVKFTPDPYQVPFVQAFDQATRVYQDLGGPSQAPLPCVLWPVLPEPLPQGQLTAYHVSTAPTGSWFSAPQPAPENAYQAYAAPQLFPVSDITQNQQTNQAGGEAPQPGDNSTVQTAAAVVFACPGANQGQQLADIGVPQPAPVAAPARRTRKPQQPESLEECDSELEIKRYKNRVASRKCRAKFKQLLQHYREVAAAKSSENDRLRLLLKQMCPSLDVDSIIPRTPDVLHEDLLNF
PP5 inh – PP5 (human) phosphatase inhibition; P53041; purified PP5c, OMFP substrate fluorescence; inhibition, % at 6.7 µM; AID 1987; hit rate 0.18% among 320,000;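 active = inhibition above the campaign's mean inhibition across all tested compounds plus 3 SD, cut at about 9.5% in these data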;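 note: 0% = DMSO only and 100% = 100 µM cantharidin control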
Target sequence (P53041 whole entry, looked up): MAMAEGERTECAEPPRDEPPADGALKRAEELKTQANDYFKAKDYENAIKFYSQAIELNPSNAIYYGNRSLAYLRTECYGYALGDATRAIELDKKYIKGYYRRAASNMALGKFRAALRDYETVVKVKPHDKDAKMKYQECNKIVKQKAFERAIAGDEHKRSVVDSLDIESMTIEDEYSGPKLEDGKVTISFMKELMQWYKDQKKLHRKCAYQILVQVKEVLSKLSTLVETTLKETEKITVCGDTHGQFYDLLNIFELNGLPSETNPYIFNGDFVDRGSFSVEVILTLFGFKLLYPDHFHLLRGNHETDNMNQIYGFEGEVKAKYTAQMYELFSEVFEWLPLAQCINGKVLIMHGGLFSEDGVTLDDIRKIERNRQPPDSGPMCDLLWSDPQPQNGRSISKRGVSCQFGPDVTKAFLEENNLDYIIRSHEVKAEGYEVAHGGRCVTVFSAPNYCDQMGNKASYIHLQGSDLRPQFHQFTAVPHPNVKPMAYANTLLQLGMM
HCV core dimer – HCV core protein dimerization inhibition | TR-FRET GST/Flag-core106 dimerization, 1536-well | inhibition, % at 5 µM | hit rate 0.33% among 300,000 | AID 1899;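 active = inhibition above the mean of all tested compounds plus 3 SD, set per screening campaign, cut at about 45% in these data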
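System – GST-tagged and Flag-tagged HCV core protein residues 1-106 · Repeats – one well for each compound · Technique – TR-FRET 671 and 617 nm emission · Doses – one concentration, 5 µM, in 0.5% DMSO · Times – 4 h, 22.5 °C incubation · Also added – Eu donor and XL665 acceptor anti-tag antibodies · Measure – percent inhibition of core106 dimerization signal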
TPT1 inhibitor – inhibitors of Candida albicans tRNA 2'-phosphotransferase TPT1. recombinant caTPT1, FP RNA substrate dephosphorylation. inhibition, % at 5 µM. hit rate 0.81% among 300,000;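 active = inhibition above the mean of all tested compounds plus 3 SD, set per screening campaign, cut at about 24% in these data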;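 note: plate controls were DMSO alone for no effect and ferristatin control at 100 nM for full effect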
Fh CTSL1 inh – counter-screen for PFM18AAP inhibitors: inhibitors of F. hepatica cathepsin L1. hit rate 0.49% among 300,000. recombinant F. hepatica cathepsin L1, Z-Leu-Arg-MCA fluorescence. inhibition, % at 5.96 µM;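 active = inhibition above the mean of all tested compounds plus 3 SD, set per screening campaign, cut at about 17% in these data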;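 note: 0% = plate median of test compound wells and 100% = 1 µM Z-Phe-Ala-diazomethylketone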
EBNA-1 inhibitor – blocks EBNA-1 binding to DNA. EBNA-1 DNA binding, fluorescence polarization. inhibition, % at 14.8 µM. hit rate 0.34% among 300,000. AID 1950; in the data active = inhibition above about 28%
Efflux pump inh – blocks antifungal efflux pumps in multiplex yeast assay. S. cerevisiae Candida pump triplex, Nile Red efflux. inhibition, % at 10 µM. hit rate 0.44% among 330,000;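 active = plate passing quality check with inhibition over a set limit, or well fluorescence over plate mean plus 4 SD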;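 note: Nile Red retained in pooled yeast measured as flow cytometry median fluorescence; 0% = buffer negative control and 100% = Enniatin B positive control; higher means more Nile Red kept so more efflux inhibition; some compounds called inactive have numbers as strong as hits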
Numbers without * were called inactive. Only part of the results is shown; the hit share may differ from the screen's.

1: Cc1ccc(/C=N\n2c(-c3ccccc3)n[nH]c2=S)s1
2: Cc1ccc2nc(N3C(=O)C(O)=C(C(=O)c4ccco4)C3c3ccc(O)cc3)sc2c1 (stereo not given)
3: O=C(Cc1nc(-c2ccc(Br)s2)cs1)NCCN1CCOCC1
4: O=c1c2cc(Cl)cc(Cl)c2nc2n1CCC2
5: CC1(C)C(C(=O)OCC(Cl)(Cl)Cl)N2C(=O)C(NC(=O)Cc3ccccc3)C2S1=O (stereo not given)
6: C/C(=N\NC(=O)c1ccc(NS(=O)(=O)c2cccs2)cc1)c1ccccn1
7: COc1cc(/C=N/NC(=O)c2cccc([N+](=O)[O-])c2)ccc1OC(=O)c1ccco1
8: Cc1cccn2c(=O)nc(SCC(=O)N3CCN(c4ccccc4)CC3)nc12

assay / entry | 1 | 2 | 3 | 4 | 5 | 6 | 7 | 8
ZTA counter | 19 | -2 | -6 | -10 | 1 | 1 | -2 | -15
Efflux pump inh | 0.0 | 0.1 | 0.5 | 0.1 | 0.1 | -0.1 | 0.1 | 0.0
PP1 inh | -2 | 15* | -6 | 0 | -4 | -5 | -2 | -1
HCV core dimer | 1 | 15 | 34 | -2 | -6 | -1 | 1 | -3
Fh CTSL1 inh | -3 | 3 | 4 | 4 | -2 | -2 | 2 | 9
EBNA-1 inhibitor | 0 | 3 | -11 | -5 | 3 | 3 | -2 | -8
TPT1 inhibitor | 0 | 6 | 3 | -2 | 5 | -1 | 4 | 1
PP5 inh | -1.0 | 3.2 | -5.9 | 0.3 | 0.4 | 0.1 | 2.3 | 0.5

9: COc1ccccc1NC(=O)c1cc2c(CO)cnc(C)c2oc1=Nc1ccc(OC)c(OC)c1
10: COC(=O)c1c(NC(=O)CN2CCN(Cc3ccc4c(c3)OCO4)CC2)sc(C)c1C
11: CCOC(=O)c1cnc(-n2nc(C)cc2C)nc1NCc1ccc2c(c1)OCO2
12: CCc1ccc(N2CC(C)Cn3c2nc2c3c(=O)[nH]c(=O)n2C)cc1 (stereo not given)
13: Cc1cc(Nc2ccc(C)c(C)c2)c2ccccc2n1
14: Cc1ccc(C(=O)NCCN2C3=NC[C@H](C(C)C)N3C[C@H]2Cc2ccc(O)cc2)cc1Br
15: O=S(=O)(c1cccc(C(F)(F)F)c1)N1CCC(O)(c2cccnc2)CC1
16: Fc1ccc(CSc2nnc(CN3CCOCC3)n2-c2ccccc2)c(Cl)c1

assay / entry | 9 | 10 | 11 | 12 | 13 | 14 | 15 | 16
ZTA counter | -6 | -15 | 14 | -2 | -7 | -22 | -9 | -5
Efflux pump inh | 0.3 | 0.2 | 0.2 | 0.3 | 0.3 | 0.0 | -0.1 | 0.1
PP1 inh | 0 | 4 | 31* | -3 | 1 | -1 | 1 | 0
HCV core dimer | -8 | 1 | 29 | -4 | 3 | -14 | -11 | -1
Fh CTSL1 inh | -1 | 5 | 0 | 2 | 3 | -1 | 2 | 1
EBNA-1 inhibitor | -7 | -12 | 1 | -5 | -5 | 4 | 3 | -11
TPT1 inhibitor | -3 | 1 | 4 | 24 | -1 | -5 | -3 | -1
PP5 inh | 1.9 | 4.7 | 3.3 | -0.8 | 1.4 | 0.5 | 2.2 | 2.8

17: CCc1ccc(-c2nc(CN3CCC(C(=O)NCCN(CC)c4ccccc4)CC3)c(C)o2)cc1
18: N#CC1=C(Nc2ccccc2)SC=C(c2ccc(Br)cc2)N=C1N1CCOCC1
19: O=C1CC(N2CCC(c3nc4ccccc4[nH]3)CC2)C(=O)N1Cc1ccccc1 (stereo not given)
20: COc1ccc(OC)c(S(=O)(=O)Nc2ccccc2C(F)(F)F)c1
21: O=C(CSc1ccc2nnc(CCNC(=O)c3ccccc3)n2n1)Nc1ccccc1F
22: O=C(C(c1ccccc1)N1CCOCC1)N1CCOCC1 (stereo not given)
23: O=C(CC1Oc2ccccc2NC1=O)NCCCN1CCN(Cc2ccccc2)CC1 (stereo not given)
24: CCOc1cc(-c2c(C#N)c(N)nc3c2CCc2ccccc2-3)ccc1O

assay / entry | 17 | 18 | 19 | 20 | 21 | 22 | 23 | 24
ZTA counter | -1 | -10 | 17 | -7 | -3 | 8 | 4 | 3
Efflux pump inh | 0.0 | -0.2 | -0.2 | 0.0 | 0.1 | -0.2 | 0.1 | 0.0
PP1 inh | 0 | -4 | -4 | -6 | -2 | 1 | -2 | 3
HCV core dimer | 5 | -3 | 3 | 2 | 3 | 1 | 2 | 3
Fh CTSL1 inh | 0 | 5 | 4 | 5 | 1 | -1 | -2 | 1
EBNA-1 inhibitor | 2 | -5 | 1 | -2 | 10 | -4 | 3 | -1
TPT1 inhibitor | -2 | -4 | 0 | -6 | -3 | -5 | 1 | 1
PP5 inh | 4.7 | 3.4 | -0.3 | 3.3 | -0.8 | 0.7 | -0.3 | 3.9

25: COc1ccc(S(=O)(=O)Nc2nc3ccccc3nc2Nc2cccc(C(=O)O)c2)cc1
26: COc1cc(/C=N/NC(N)=O)ccc1OCC(=O)Nc1ccc(C)c(C)c1
27: CC(C#CCN1CCCCC1)OCCOCc1ccccc1 (stereo not given)
28: CN(Cc1ccccc1)C(=O)CCS(=O)(=O)c1cc2c(cc1Cl)NC(=O)CO2
29: S=c1[nH]nc(-c2ccccc2Cl)n1Cc1ccccc1
30: CC1Cc2nc(SCC(=O)Nc3ccc4c(c3)OCO4)n(-c3ccc(F)cc3)c(=O)c2S1 (stereo not given)
31: C1CCC(n2nnnc2CN2CCN(C3CCCC3)CC2)CC1
32: COc1ccc(C(=O)N2CCC(n3c(C)nc4cc(F)ccc43)CC2)cc1

assay / entry | 25 | 26 | 27 | 28 | 29 | 30 | 31 | 32
ZTA counter | -15 | 19 | 12 | 0 | -7 | -2 | 17 | 5
Efflux pump inh | -0.1 | 0.2 | 0.1 | -0.1 | -0.1 | -0.2 | -0.2 | -0.1
PP1 inh | 0 | -3 | 0 | -2 | -3 | 2 | -3 | -2
HCV core dimer | -13 | 0 | 1 | 3 | 2 | 27 | -3 | 0
Fh CTSL1 inh | 8 | 2 | -2 | 1 | -1 | 3 | 4 | -2
EBNA-1 inhibitor | -4 | 2 | -6 | 8 | 5 | 2 | -6 | -5
TPT1 inhibitor | -5 | 2 | -3 | 0 | -4 | -5 | 1 | 0
PP5 inh | 3.2 | 0.9 | 0.7 | 0.0 | 2.2 | 3.4 | 1.1 | -1.9

33: O=C(c1ccc(F)cc1)C(CN1CCOCC1)c1ccccc1 (stereo not given)
34: CCOc1ccc(-n2c(SCC(=O)Nc3ccc(OC)cc3)nc3c(c2=O)SCC3)cc1
35: COC(=O)CCCC1=CC2=CC(=O)C(C)(OC(=O)CCc3ccccc3)C(=O)C2=CO1 (stereo not given)
36: Cn1c(=O)c2c(ncn2CC(=O)N2CCN(c3ccccc3F)CC2)n(C)c1=O
37: Cc1ccc(C(=O)Oc2ccc(Br)cc2C(=S)N2CCOCC2)cc1
38: CCc1ccc(NC(=O)COc2ccc(/C=C(/C#N)c3nc4ccccc4[nH]3)cc2OC)cc1
39: CCCCOc1ccc2c(c1)/C(=C(\C(Cl)=C(Cl)Cl)[N+](=O)[O-])N2
40: CC1(C)CC(=O)C(=C2SCCCS2)C(=O)C1

assay / entry | 33 | 34 | 35 | 36 | 37 | 38 | 39 | 40
ZTA counter | 15 | 10 | 18 | 2 | -3 | 27 | 13 | 2
Efflux pump inh | -0.1 | 0.2 | 0.4 | -0.1 | 0.1 | 0.0 | 0.2 | -0.1
PP1 inh | 5 | -3 | -6 | -3 | 0 | 13 | 2 | 0
HCV core dimer | -1 | 17 | 11 | 4 | -2 | 9 | 18 | 0
Fh CTSL1 inh | 0 | -3 | 4 | -2 | -2 | 2 | 3 | 1
EBNA-1 inhibitor | 10 | -15 | 3 | 13 | -18 | -27 | 7 | -11
TPT1 inhibitor | -1 | 1 | 8 | -4 | -1 | -3 | -42 | -1
PP5 inh | 0.8 | 2.6 | -1.1 | 4.4 | 1.2 | 2.0 | -0.4 | 1.9

41: CCOc1ccc(NC(=O)CSc2nnc(Cn3cnc([N+](=O)[O-])n3)n2CC)cc1
42: CCN1CCN(c2cc(C)c3cc(NC(=S)N4CCN(c5ccccc5)CC4)ccc3n2)CC1
43: COc1ccc(C2CC(c3ccc(OC)cc3)n3nc(NC(=O)c4cccs4)nc3N2)cc1 (stereo not given)
44: Cc1nnc(N2CCOCC2)c2nn(-c3cccc(Cl)c3)c(C)c12
45: CC(=O)c1ccccc1OC(=O)CCN1C(=O)c2ccccc2C1=O
46: O=C(c1ccc(CSCc2ccccc2F)o1)N1CCN(c2ccc(N3CCOCC3)nn2)CC1
47: O=C1OC(Nc2ccc3ncccc3c2)c2ccccc21 (stereo not given)
48: Clc1ccc(CSc2nnc(CN3CCOCC3)n2-c2ccccc2)cc1Cl

assay / entry | 41 | 42 | 43 | 44 | 45 | 46 | 47 | 48
ZTA counter | -1 | -28 | -3 | 4 | 6 | -8 | 13 | 4
Efflux pump inh | 0.1 | 0.3 | 0.2 | 0.1 | 0.1 | 1.3 | 0.1 | 0.1
PP1 inh | -10 | -2 | 18* | 1 | 0 | 2 | -3 | -3
HCV core dimer | -2 | 4 | 13 | -1 | -1 | -33 | -5 | 3
Fh CTSL1 inh | -10 | -1 | 1 | 4 | -6 | -2 | 5 | 2
EBNA-1 inhibitor | -14 | -4 | -1 | -1 | 9 | -3 | -2 | -17
TPT1 inhibitor | 3 | 0 | 0 | 28* | -2 | 1 | 3 | 5
PP5 inh | -2.4 | 4.0 | 0.1 | 1.5 | -0.2 | 3.4 | 0.6 | 3.1

49: O=C(Cc1ccccc1)Nc1ccc(Br)c(Cl)c1
50: CCCOC(=O)c1ccc(OC(=O)c2ccco2)cc1
51: CC1(c2ccc3ccccc3c2)NC(=O)N(CC(=O)N2CCN(c3ccccc3O)CC2)C1=O (stereo not given)
52: Cc1ccc(/C=N/n2c(-c3ccncc3)n[nH]c2=S)s1
53: Cn1c(OCc2ccco2)nc2c1c(=O)n(Cc1ccc(Cl)c(Cl)c1)c(=O)n2C
54: Cc1ccc(C2=NN3C(=O)c4ccccc4C3C2)cc1 (stereo not given)
55: O=C(NCc1ccc2c(c1)OCO2)c1cccc(N2CCCC2=O)c1
56: O=C(c1ccc2ccccc2c1)N1CCN(c2ccc([N+](=O)[O-])c(N3CCOCC3)c2)CC1

assay / entry | 49 | 50 | 51 | 52 | 53 | 54 | 55 | 56
ZTA counter | -5 | -4 | 0 | 5 | 1 | -1 | -9 | -10
Efflux pump inh | 0.0 | -3.4 | 0.0 | 0.2 | 0.2 | -0.1 | 0.0 | 0.1
PP1 inh | 1 | -1 | 3 | -5 | 0 | -2 | -3 | 4
HCV core dimer | -2 | 3 | 29 | -3 | 2 | -2 | 0 | 0
Fh CTSL1 inh | 2 | -4 | -2 | -2 | 4 | 2 | 0 | 0
EBNA-1 inhibitor | -10 | 2 | 2 | -7 | -3 | 0 | -3 | -4
TPT1 inhibitor | -2 | -3 | -1 | -4 | -1 | -1 | -3 | -1
PP5 inh | 2.1 | 2.1 | 0.9 | 3.0 | 1.7 | 1.3 | 3.8 | 4.8

Already shown: an excerpt of the list.
49: O=C(Cc1ccccc1)Nc1ccc(Br)c(Cl)c1
50: CCCOC(=O)c1ccc(OC(=O)c2ccco2)cc1
51: CC1(c2ccc3ccccc3c2)NC(=O)N(CC(=O)N2CCN(c3ccccc3O)CC2)C1=O (stereo not given)
52: Cc1ccc(/C=N/n2c(-c3ccncc3)n[nH]c2=S)s1

assay / entry | 49 | 50 | 51 | 52
ZTA counter | -5 | -4 | 0 | 5
Efflux pump inh | 0.0 | -3.4 | 0.0 | 0.2
PP1 inh | 1 | -1 | 3 | -5
HCV core dimer | -2 | 3 | 29 | -3
Fh CTSL1 inh | 2 | -4 | -2 | -2
EBNA-1 inhibitor | -10 | 2 | 2 | -7
TPT1 inhibitor | -2 | -3 | -1 | -4
PP5 inh | 2.1 | 2.1 | 0.9 | 3.0
